# Mtb H37Rv = Mycobacterium tuberculosis H37Rv growth inhibition, putative kinase inhibitor library, confirmatory dose response (AID 2842); M. tuberculosis H37Rv growth inhibition; higher % means a stronger effect; some inactives read as strong as hits; inhibition, % at 10 µg/mL, or IC90 in µg/mL where a hit was titrated; actives 5.2% (n = 24,000);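 active = confirmed in a dose series; about a fifth of its hits are not listed in these tables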;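 also: bacteria incubated one week before Alamar blue readout; 0% = bacteria only wells and 100% = bacteria with high antibiotic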
# Numbers without * were called inactive. Only part of the results is shown; count on the stated rates, not on these rows.
SMILES,Mtb H37Rv
O=C(Nc1c(C(=O)Nc2ccc3c(c2)OCCO3)oc2ccccc12)c1ccccc1C(F)(F)F,-13%
O=C(Nc1nnc(-c2ccc3c(c2)OCCO3)o1)c1ccno1,-7%
O=C(Nc1cccc(Br)c1)c1ccc([N+](=O)[O-])s1,<0.2µg/mL*
CC1CC(C)CN(S(=O)(=O)c2ccc(C(=O)Nc3sc4c(c3C(N)=O)CCCCC4)cc2)C1 (stereo unspecified),5%
Nc1nc(SCC(=O)Nc2cccc([N+](=O)[O-])c2)[nH]c(=O)c1NC(=O)c1ccccc1,-15%
O=C(CSc1nc2ccc(N3CCCCC3)cc2c(=O)n1Cc1ccccc1)NCc1ccco1,-7%
Cc1ccc(C)c(NC(=O)CSc2nccn(-c3cccc(F)c3)c2=O)c1,0%
Nc1nc(SCCN2CCOCC2)[nH]c(=O)c1NC(=O)c1ccc(F)c(F)c1,-2%
Cc1ccc(NC(=O)C(=O)Nc2cc3c4c(c2)CCN4C(=O)CC3)cc1F,2%
CCCNC(=O)COc1cccc2c1CCNC2=O,-12%
Nc1cc(OC(=O)c2ccc(F)cc2)nn1S(=O)(=O)c1ccc(F)cc1,-8%
CCN1CCN(c2nc3c(c(=O)n(C)c(=O)n3C)n2CCSc2ncccn2)CC1,1%
CCOc1ccccc1NC(=O)c1oc2ccccc2c1NC(=O)C(C)C,22%
Cc1ccc2nc(NC(=O)CSc3nnc4ccc(-c5ccccn5)nn34)sc2c1,14%
CC1Cc2nc(SCC(=O)NCc3ccc(F)cc3)n(C)c(=O)c2S1 (stereo unspecified),-6%
O=C(c1ccc(S(=O)(=O)N2CCCCC2)cc1)N1CCN=C1SCc1cccc(F)c1,-3%
NC(=O)COc1ccc(/C=C2\SC(=S)N(C3CCCCC3)C2=O)cc1,-5%
Nn1c(SCC(=O)Nc2ccc3c(c2)OCO3)nnc1-c1ccncc1,-8%
O=[N+]([O-])c1cccc(CSc2ncnc3c2cnn3-c2ccccc2)c1,-21%
O=C(COc1ccccc1Br)Nc1cccc([N+](=O)[O-])c1,5%
CCOC(=O)c1nn(-c2ccc(OC)cc2)c(=O)c2c(NC(=O)c3ccc(Cl)cc3)scc12,1%
Cc1ccc2oc(C(=O)Nc3ccccc3C#N)c(C)c2c1,-7%
COc1ccc2cc(CCNC(=O)CC(C)C)c(=O)[nH]c2c1,17%
O=C(CSc1nnc(NC(=O)c2cccc([N+](=O)[O-])c2)s1)Nc1nccs1,-6%
CCOc1ccc2c(c1)c1nnc(-c3ccc(F)cc3)c-1cn2Cc1cccc(OC)c1,28%

# Molecules above with a furan ring, fused or not:
SMILES,Mtb H37Rv
O=C(Nc1c(C(=O)Nc2ccc3c(c2)OCCO3)oc2ccccc12)c1ccccc1C(F)(F)F,-13%
O=C(CSc1nc2ccc(N3CCCCC3)cc2c(=O)n1Cc1ccccc1)NCc1ccco1,-7%
CCOc1ccccc1NC(=O)c1oc2ccccc2c1NC(=O)C(C)C,22%
Cc1ccc2oc(C(=O)Nc3ccccc3C#N)c(C)c2c1,-7%

# Additional records.
SMILES,Mtb H37Rv
CC(C)CCn1c(SCC(O)CO)nc2c1c(=O)[nH]c(=O)n2C (stereo unspecified),-1%
O=C(Nc1ccccc1)c1oc2ccccc2c1NC(=O)c1cc2ccccc2oc1=O,10%
Cn1c(=O)[nH]c(=O)c2c1nc(SCCN1CCOCC1)n2CC(O)COc1ccc(Cl)cc1 (stereo unspecified),14%
Cc1c(Cc2ccc3c(c2)OCO3)sc(NC(=O)c2ccco2)c1C(N)=O,-8%
CCOC(=O)c1nn(-c2ccc(C)cc2)c(=O)c2c(NC(=O)Cc3ccc(F)cc3)scc12,3%
CC1CCc2c(sc(NC(=O)c3cccc(NS(=O)(=O)c4ccc(F)cc4)c3)c2C(N)=O)C1 (stereo unspecified),-8%
CCOC(=O)c1nn(-c2ccc(OC)cc2)c(=O)c2c(NC(=O)c3cc(Cl)ccc3OC)scc12,-5%
NC(=O)c1c(NC(=O)c2cccc(Oc3ccccc3)c2)sc2c1CCCC2,1%
O=C(Nc1nnc(C2=COCCO2)o1)c1cc(Cl)cc(Cl)c1,54µg/mL*
Cc1ccc(OCC(=O)Nc2c(C(=O)Nc3ccc([N+](=O)[O-])cc3)oc3ccccc23)cc1,-5%
Cc1ccc(/C(O)=C2\C(=O)C(=O)N(c3ccccn3)C2c2ccccc2Cl)cc1 (stereo unspecified),14%
Cc1ccc2c(c1)C1CC(C)(O2)N(c2ccc(C(=O)O)cc2)C(=O)N1 (stereo unspecified),-10%
CCOC(=O)c1sc(NC(=O)Nc2cccc(Cl)c2)nc1C,-3%
COc1ccccc1-n1ccn(CC(=O)Nc2ccc(Br)cc2F)c(=O)c1=O,-2%
O=C(O)c1ccc2[nH]c(=S)[nH]c2c1,-6%
CCCCCCC1C(C#N)=C(N)OC2=C1C(=O)CC(C)(C)C2 (stereo unspecified),12%
CCOc1ccc(NC(=O)c2cnc3sccn3c2=O)cc1,10%
Cc1cc(C(=O)NNC(=O)C2CC2)n[nH]1,2%
O=C(Nc1nnc(-c2ccc(Cl)cc2)s1)C12CC3CC(CC(C3)C1)C2,10%
COc1ccc2[nH]c3c(=O)n(CCCCCC(=O)N4CCC(C(N)=O)CC4)c(=S)[nH]c3c2c1,-13%
CCCCCn1c(SCC(=O)OC)nc2c1c(=O)[nH]c(=O)n2C,6%
CC(=O)N1CCN(c2ccc(N3CCOCC3)nn2)CC1,6%
CCC(SCC(=O)OC)C(=O)Nc1nnc(-c2ccc(F)cc2)s1 (stereo unspecified),-7%
CCOc1cccc2c1Oc1nc(-c3ccc(O)cc3)[nH]c(=O)c1C2,-7%
O=C(Nc1nnc(-c2ccncc2)o1)c1ccc(C(=O)c2ccccc2)cc1,96%

# Reprinted at random: six compounds from above
SMILES,Mtb H37Rv
CCOc1cccc2c1Oc1nc(-c3ccc(O)cc3)[nH]c(=O)c1C2,-7%
CCOC(=O)c1sc(NC(=O)Nc2cccc(Cl)c2)nc1C,-3%
CCCCCn1c(SCC(=O)OC)nc2c1c(=O)[nH]c(=O)n2C,6%
CC(=O)N1CCN(c2ccc(N3CCOCC3)nn2)CC1,6%
COc1ccccc1-n1ccn(CC(=O)Nc2ccc(Br)cc2F)c(=O)c1=O,-2%
O=C(Nc1ccccc1)c1oc2ccccc2c1NC(=O)c1cc2ccccc2oc1=O,10%

# (continued)
SMILES,Mtb H37Rv
COc1ccc(/C=N\Nc2cn[nH]c(=O)c2Br)cc1OC,15%
Cn1c(SCC(=O)c2ccc(Cl)cc2)nc2c1c(=O)[nH]c(=O)n2C,10%
Cc1ccc2c(c1)Cc1c(nc(-c3ccccc3O)[nH]c1=O)O2,14%
O=C(CSc1nc(-c2ccccc2Cl)ns1)Nc1ccc2c(c1)OCO2,75%
COC(=O)CSc1nc2c(c(=O)[nH]c(=O)n2C)n1C,12%
Cc1cc2cc(CCNC(=O)c3ccccc3C(F)(F)F)c(=O)[nH]c2cc1C,-4%
Cc1cc2c(cc1C)NC(CC(=O)Nc1ccccc1[N+](=O)[O-])C(=O)N2 (stereo unspecified),9%
COC(=O)c1ccccc1NS(=O)(=O)c1cccc2cccnc12,-3%
CCOc1ccc(NC(=O)CN2C(=O)C(c3ccc(OC)cc3)=NC23CCCCC3)cc1,-10%
O=C1Cc2cc(NC(=O)c3cccs3)ccc2N1,-16%
CCCCn1c(=O)c2oc3ccccc3c2n(CC(=O)Nc2ccc(C)c(Cl)c2)c1=O,2%
CN1C(=O)/C(=C2\SC(=S)N(CCC(=O)O)C2=O)c2ccccc21,-6%
C=CCn1nnnc1SCC(=O)Nc1cccc(C(F)(F)F)c1,-7%
CN(C(=O)COc1ccc(Cl)cc1)C1(C)CCS(=O)(=O)C1 (stereo unspecified),-25%
Cc1ccc(NC(=O)CSc2nc3[nH]ncc3c(=O)[nH]2)cc1,-14%
CCc1cccc(OCC(O)Cn2c(N(CC)CC)nc3c2c(=O)[nH]c(=O)n3C)c1 (stereo unspecified),3%
O=C(Nc1ccccc1F)c1cnc2sccn2c1=O,1%
O=C(Nc1nnc(-c2ccncc2)o1)c1ccccc1I,-33%
COc1ccc(OC)c2[nH]c(=O)c(CCNC(=O)c3ccc(C(F)(F)F)cc3)cc12,-13%
CCC(CO)Nc1ncnc(N)c1[N+](=O)[O-] (stereo unspecified),-6%
O=C(Nc1ccc2c(c1)C(=O)NC2=O)c1ccc([N+](=O)[O-])s1,6%
COc1ccc(Nc2nc3c(OC)cccc3s2)cc1,6%
COC(=O)c1ccsc1NC(=O)c1ccccc1,9%
C=CCNc1nc2c(c(=O)n(C)c(=O)n2C)n1CC(O)COc1ccc(OC)cc1 (stereo unspecified),-15%
Cc1ccc(-c2csc(NC(=O)c3ccc(S(=O)(=O)N4CCC(C)CC4)cc3)n2)cc1C,-5%

# Sorted by length of the SMILES (low to high): part of the list above.
SMILES,Mtb H37Rv
O=C1Cc2cc(NC(=O)c3cccs3)ccc2N1,-16%
CCCCn1c(=O)c2oc3ccccc3c2n(CC(=O)Nc2ccc(C)c(Cl)c2)c1=O,2%
CC1CCc2c(sc(NC(=O)c3cccc(NS(=O)(=O)c4ccc(F)cc4)c3)c2C(N)=O)C1 (stereo unspecified),-8%

# Additional entries follow:
SMILES,Mtb H37Rv
O=C(Nc1ccc(Cl)cc1)c1oc2ccccc2c1NC(=O)c1c(F)cccc1F,0%
O=C(CSc1nnc2ccc(-c3ccco3)nn12)c1ccc(Cl)cc1,-7%
COc1cc([N+](=O)[O-])cc2cc(C(=O)OCCn3c([N+](=O)[O-])cnc3C)c(=O)oc12,-2%
O=C(O)c1ccccc1Nc1ccnc(Nc2ccccc2)n1,-3%
O=C(Nc1ccc2c(c1)C(=O)NC2=O)c1cc(Cl)ccc1Cl,-9%
O=[N+]([O-])c1ccc2ncnc(Nc3cc(Cl)ccc3O)c2c1,50%
COc1cc(OC)cc(C(=O)NCC(=O)N/N=C/c2ccccc2OC)c1,-5%
CC(C)c1nnc(NC(=O)C2CCCCC2)s1,5%
Cc1nc2sccn2c1-c1csc(Nc2ccc(C(=O)O)cc2)n1,-3%
COc1ccc(C(=O)Nc2c(C(=O)Nc3ccc(F)c(F)c3)oc3ccccc23)cc1OC,-2%
COc1ccc(OC)c2[nH]c(=O)c(CCNC(=O)CC(C)(C)C)cc12,3%
CCOc1ccc(C(=O)Nc2c(N)nc(SC)[nH]c2=O)cc1,-16%
CCCCc1ccc2[nH]cc(C(=O)O)c(=O)c2c1,14µg/mL*
Cc1ccc(NC(=O)CSc2nc(N)c(NC(=O)c3ccc(Br)o3)c(=O)[nH]2)cc1Cl,-3%
O=C(Cn1cnc2ccccc2c1=O)NN=Cc1cccc([N+](=O)[O-])c1,-1%
Cc1ccc2cc(CCNC(=O)CC(C)(C)C)c(=O)[nH]c2c1C,-6%
COc1ccc(N2CC(NC(=O)Nc3cc(C)ccn3)CC2=O)cc1 (stereo unspecified),19%
CC(Oc1ccc2c(-c3ccccc3)cc(=O)oc2c1)C(=O)NC(C(=O)O)c1ccccc1 (stereo unspecified),-12%
Cc1ccc(C2NC(=O)NC3=C2C(=O)CC(C)(C)C3)cc1 (stereo unspecified),2%
Cn1c(O)c(N=Nc2nc3c(c(=O)[nH]c(=O)n3C)n2CCO)c(=O)n(C)c1=O,-5%
Cc1nc2ccccc2c(=O)n1-c1cccc(NS(=O)(=O)c2cccc(Cl)c2)c1,-9%
Cc1ccc(NC(=O)Cn2cnc3c(cnn3C)c2=O)cc1C,-4%
O=C(O)CNC(=O)c1ccc(NC(=S)NC(=O)c2cccc([N+](=O)[O-])c2)cc1,-12%
O=C(COc1ccc(Br)cc1)N=Nc1c(O)[nH]c2c(Br)cc(Br)cc12,0%
COc1ccc2nc(NC(=O)CC3CCS(=O)(=O)C3)sc2c1 (stereo unspecified),-2%

# Copied from the results shown (2 entries):
SMILES,Mtb H37Rv
O=C(Nc1ccc(Cl)cc1)c1oc2ccccc2c1NC(=O)c1c(F)cccc1F,0%
O=C(CSc1nnc2ccc(-c3ccco3)nn12)c1ccc(Cl)cc1,-7%

# Later entries.
SMILES,Mtb H37Rv
Cc1ccc(C)c(Oc2ncnc(N)c2[N+](=O)[O-])c1,20%
O=C(CSc1nc2c([nH]c3ccccc32)c(=O)n1-c1cccc(Cl)c1)NC1CCCCC1,84%
COc1ccc(C2CC(c3ccc(NS(C)(=O)=O)cc3)=NN2C(C)=O)cc1OC (stereo unspecified),-3%
CCOC(=O)c1sc(NC(=O)CN2C(=O)c3ccccc3C2=O)c(SC#N)c1C,2%
Cc1ccc(CNC(=O)CSc2nnc3ccc(-c4cccs4)nn23)cc1,-2%
CCOC(=O)c1c(NC(=O)c2ccccc2F)sc2c1CCC2,-2%
O=C(COc1cccc2ccc(N3CCOCC3)nc12)Nc1cccc(C(F)(F)F)c1,10%
NC(=O)c1c(NC(=O)c2ccc(S(=O)(=O)N3CCc4ccccc43)cc2)sc2c1CCCCC2,8%
CCC(C)Sc1nc2c(c(=O)[nH]1)C(c1cccnc1)C1=C(CC(C)(C)CC1=O)N2 (stereo unspecified),7%
COc1ccc(N=c2oc3ccccc3cc2C(N)=O)cc1,2%
CN(c1ccccc1)S(=O)(=O)c1ccc(C(=O)Nc2nc(-c3ccccc3)c(-c3ccccc3)s2)cc1,12%
Cc1ccc([N+](=O)[O-])cc1S(=O)(=O)NCc1nnnn1-c1ccc(F)c(F)c1,3%
COc1ccc(Nc2nc(N3CCN(c4ccccc4)CC3)nc3nccnc23)cc1,11%
CN1CCc2c(sc(NC(=O)c3ccc(S(=O)(=O)N4CCc5ccccc5C4)cc3)c2C(N)=O)C1,-12%
Cc1nc2sc(C(c3cccc(Br)c3)N3CCN(C(=O)c4ccco4)CC3)c(O)n2n1 (stereo unspecified),42%
COC(=O)c1ccc2c(c1)C1CC(C)(O2)N(c2ccc(F)cc2F)C(=O)N1 (stereo unspecified),-11%
S=C(NCc1ccco1)N/N=C/c1cccnc1,9%

# Assay outcomes as filed in PubChem.
